Rango-impB inh: Rango-importin beta binding inhibition. Q14974. Rango CFP/YFP FRET sensor + importin beta, 45 min. Potency, µM (top dose mostly 92.2 µM), for the others: at the highest dose inhibition of complex formation. hit rate 0.031% among 340,000. AID 540263; active = rising FRET ratio curve, often small or poorly fitted; inconclusive = mostly compound fluorescence or quenching in the first reads; inactive = flat curves in all reads;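 also: potency is read from the fitted curve at half-maximal effect; 0% = DMSO wells and 100% = buffer wells lacking importin beta; nearly all actives have a fitted effect of over 15% in size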
Target sequence (Q14974 whole entry, looked up): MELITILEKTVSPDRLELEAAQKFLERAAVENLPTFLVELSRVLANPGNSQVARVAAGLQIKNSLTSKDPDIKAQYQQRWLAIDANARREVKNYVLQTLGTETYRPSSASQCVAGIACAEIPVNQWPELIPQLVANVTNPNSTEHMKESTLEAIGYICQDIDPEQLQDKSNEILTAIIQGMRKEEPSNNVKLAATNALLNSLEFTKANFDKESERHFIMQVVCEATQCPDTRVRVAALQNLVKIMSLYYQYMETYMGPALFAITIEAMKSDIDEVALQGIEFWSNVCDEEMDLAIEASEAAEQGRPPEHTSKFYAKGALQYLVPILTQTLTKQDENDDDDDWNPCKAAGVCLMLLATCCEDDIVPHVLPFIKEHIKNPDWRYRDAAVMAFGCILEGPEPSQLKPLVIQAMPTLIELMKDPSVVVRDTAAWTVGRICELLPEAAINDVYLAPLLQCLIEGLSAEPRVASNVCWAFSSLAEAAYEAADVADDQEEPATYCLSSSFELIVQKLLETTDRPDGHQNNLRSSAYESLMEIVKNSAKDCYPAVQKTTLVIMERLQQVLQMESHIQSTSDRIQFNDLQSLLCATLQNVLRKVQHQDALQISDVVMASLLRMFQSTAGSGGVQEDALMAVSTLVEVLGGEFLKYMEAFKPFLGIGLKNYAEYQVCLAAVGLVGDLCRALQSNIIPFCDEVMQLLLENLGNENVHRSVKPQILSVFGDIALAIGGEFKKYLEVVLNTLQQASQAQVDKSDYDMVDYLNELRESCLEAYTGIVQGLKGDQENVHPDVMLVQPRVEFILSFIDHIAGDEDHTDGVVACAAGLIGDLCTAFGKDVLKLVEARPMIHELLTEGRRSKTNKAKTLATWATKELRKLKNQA
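FRET biosensor (snurportin 1 IBB flanked by EYFP and cerulean), 50 nM, with compound 5 min, then 0.125 microM importin beta in PBS, 1 mM DTT, 0.02% Tween-20, 0.1% BSA. CFP/YFP ratio read after 45 min at room temperature; pre-read flags interference.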
miR-21 reporter: raises the signal of a miR-21 reporter; HeLa miR-21 FLuc reporter, luciferase, 48 h; Potency, µM (doses to about 38.3 µM), inactives show top-dose reporter change, positive = more light; 340,000 tested, under 10 active; active = well fitted rising curve with a large enough effect; inconclusive = small, poorly fitted or top-dose-only effect; inactive = no such curve, though single readings can be large or run the other way;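 also: % of control where 0% means no effect; miR-21 action dims this reporter so a rising signal means less miR-21 action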
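Luminescence from a firefly luciferase reporter carrying a miR-21 binding site downstream, stably expressed under a CMV promoter in HeLa cells that make miR-21 endogenously, reports miRNA modulation after 48 h compound exposure up to approximately 40uM final.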
Rango release inh: inhibition of RanGTP-driven Rango-importin beta dissociation. O95149+P62826. Biochemical FRET Rango-importin beta, RanGTP-induced dissociation. Potency, µM (series often up to 46.1 µM), without a hit: at the highest dose activity change, negative = inhibition. hit rate 0.071% among 340,000. AID 540253; active means falling FRET ratio curve, often poorly fitted, with flat reads before Ran was added; inconclusive means other falling curves, or compound fluorescence or quenching; inactive means flat or rising ratio curve;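 also: potency is read from the fitted curve at half-maximal effect; % of control where 0% means no effect; nearly all actives have a fitted effect of over 45% in size; -100% = wells without RanGTP and RCC1; the record marks most hits as doubtful in a second field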
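Compounds preincubate 5 min with complex of recombinant Rango and importin beta in PBS with 1 mM DTT. Ran (0.6 uM) loaded with 2 mM GTP plus 0.2 uM RCC1 starts dissociation; FRET is recorded 45 min later.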
GLA inh pH 4.5: alpha-galactosidase A (human) inhibition, pH 4.5. P06280. purified enzyme, 4-MU-alpha-Gal fluorescence, pH 4.5. activity change, negative = inhibition, % at 105 µM. 230,000 tested, under 10 active; inconclusive = small, poorly fitted or top-dose-only inhibition, or a rising curve; inactive = flat fitted curve, though single readings scatter; no compound was filed as active;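 also: 0% = full activity with enzyme and -100% = basal without enzyme; dose as in the result columns while the protocol names 77 µM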
Numbers without * were called inactive; ? = inconclusive; nt = no result given. A portion of the library, so the mix of outcomes need not match the whole.

SMILES | Rango-impB inh | miR-21 reporter | Rango release inh | GLA inh pH 4.5
O=C(CNC(=O)c1ccc(Br)o1)NNC(=O)c1ccc(Cl)cc1 | -1.2% | nt | 0% | nt
CCOC(=O)C(C)Oc1ccc2c(-c3cccc([N+](=O)[O-])c3)cc(=O)oc2c1 (stereo not given) | -2.5% | -1% | ? | -1
Cn1c(SCC(=O)OC2CCCCC2)nnc1-c1ccc2c(c1)OCO2 | -2.1% | -7% | 7% | -8
CCOC(=O)c1c(N2C(=O)Nc3cc(Cl)c(Cl)cc3N2O)sc2c1CCCCC2 | 2.8% | 20% | 3% | 5
Cc1cc(C)n(-c2ccc(C(=O)Nc3ccc(S(=O)(=O)N(C)C)cc3)cc2)n1 | -1.2% | ? | 3% | -6
O=C(NCc1ccccc1)c1cccc(NC(=O)C2CC2)c1 | -3.7% | nt | 0% | nt
COc1ccccc1CCc1nnc(CCC(=O)NCC[C@@H]2C[C@@H]3C=C[C@H]2C3)o1 | -2.1% | -5% | 0% | -1
CCOC(=O)c1cc(-c2ccccc2)sc1NC(=O)CSc1nncs1 | -6.3% | -14% | 33% | 2
CS(=O)(=O)Nc1cc2c3c(c1)CCC(=O)N3CCC2 | -1.8% | 1% | 0% | nt
Cc1ccc([N+](=O)[O-])c2cccnc12 | 0.0% | 1% | -8% | 6
COc1ccc(-c2nn(-c3ccccc3)cc2C(=O)N2CCN(S(=O)(=O)c3ccccc3C#N)CC2)cc1 | -0.6% | nt | 31% | nt
Cc1cc(NC(=O)CCC(=O)N(c2ccccc2)C(C(=O)NC2CCCC2)c2ccncc2)no1 (stereo not given) | -2.2% | -2% | 0% | -2
Cc1nn(C)cc1NC(=O)CCSc1nc(-c2ccco2)cc(C(F)(F)F)n1 | -3.1% | -2% | 21% | -2
Cc1cccc(C)c1OCC(=O)NNC(=O)CNC(=O)c1ccc(OC(F)F)cc1 | 0.7% | nt | -11% | nt
c1ccc2c(c1)CCN(Cc1nnnn1Cc1ccc3c(c1)OCO3)C2 | 2.3% | -8% | 36% | 3
COc1cccc(NC2SC(=O)N(c3ccccc3)C2=O)c1 (stereo not given) | 3.6% | -59% | -18% | 4
Cc1cccc(C)c1OCc1nnc2c3cnn(C)c3ncn12 | 1.1% | -6% | 6% | -20
COc1ccc(CC(=O)N(C)Cc2cccc(F)c2)cc1S(=O)(=O)N1CCOCC1 | -0.7% | nt | -6% | nt
COc1cc2c(cc1OC)C(=O)CCS2 | -3.0% | -3% | ? | 8
O=C(Nc1cccc(Cl)c1)C1=CC=CN2CCS(=O)(=O)N=C12 | 5.3% | nt | 0% | nt

Some of these compounds in order of length of the SMILES, highest first:
SMILES | Rango-impB inh | miR-21 reporter | Rango release inh | GLA inh pH 4.5
COc1ccc(-c2nn(-c3ccccc3)cc2C(=O)N2CCN(S(=O)(=O)c3ccccc3C#N)CC2)cc1 | -0.6% | nt | 31% | nt
Cc1cc(NC(=O)CCC(=O)N(c2ccccc2)C(C(=O)NC2CCCC2)c2ccncc2)no1 (stereo not given) | -2.2% | -2% | 0% | -2
COc1ccccc1CCc1nnc(CCC(=O)NCC[C@@H]2C[C@@H]3C=C[C@H]2C3)o1 | -2.1% | -5% | 0% | -1
COc1ccc(CC(=O)N(C)Cc2cccc(F)c2)cc1S(=O)(=O)N1CCOCC1 | -0.7% | nt | -6% | nt
Cc1cccc(C)c1OCC(=O)NNC(=O)CNC(=O)c1ccc(OC(F)F)cc1 | 0.7% | nt | -11% | nt
Cc1nn(C)cc1NC(=O)CCSc1nc(-c2ccco2)cc(C(F)(F)F)n1 | -3.1% | -2% | 21% | -2
c1ccc2c(c1)CCN(Cc1nnnn1Cc1ccc3c(c1)OCO3)C2 | 2.3% | -8% | 36% | 3
CCOC(=O)c1cc(-c2ccccc2)sc1NC(=O)CSc1nncs1 | -6.3% | -14% | 33% | 2
CS(=O)(=O)Nc1cc2c3c(c1)CCC(=O)N3CCC2 | -1.8% | 1% | 0% | nt
Cc1cccc(C)c1OCc1nnc2c3cnn(C)c3ncn12 | 1.1% | -6% | 6% | -20
COc1cc2c(cc1OC)C(=O)CCS2 | -3.0% | -3% | ? | 8

Later entries
SMILES | Rango-impB inh | miR-21 reporter | Rango release inh | GLA inh pH 4.5
Oc1ccc(/C=N/N=C(c2ccccc2)c2ccccc2)c(O)c1O | -3.9% | -1% | -12% | -2
CN(C)S(=O)(=O)c1cccc(NC(=O)c2ccc(S(=O)(=O)N3CCCCC3)cc2)c1 | -0.5% | nt | -1% | nt
CCOC(=O)Nc1cccc(OCC(=O)Nc2ccc3c(c2)CCC3)c1 | -2.7% | nt | 16% | nt
COc1cc(NC(=O)COc2ccc(Cl)cc2)ccc1NC(=O)C(C)C | 0.0% | -4% | -4% | 4
Cc1cc(OC(=O)c2ccc(S(=O)(=O)N3CCCCC3)cc2)c([N+](=O)[O-])c(=O)[nH]1 | -1.3% | 4% | 1% | 1
CN(C(=O)CSc1ccc2c(c1)OCCO2)c1ccccc1 | -2.7% | nt | 5% | nt
CCCCOc1ncnc2c1[nH]c1ccccc12 | ? | 0% | -25% | -6
Cc1cc(C(=O)NCCCN2CCN(c3cc(Cl)ccc3C)CC2)n(-c2ccccc2)n1 | -0.5% | 28% | 1% | -3
Cc1ccc2nc(NC3=NCN(C4CCCCC4)CN3)nc(C)c2c1 | nt | -5% | nt | 4
Cc1ccc(NC(=O)CCNC(=O)c2ccco2)cc1 | -3.3% | -9% | 10% | -17
CCN1CCCC1CNC(=O)C(=O)NCc1ccccc1 (stereo not given) | -3.0% | -1% | 14% | 7
c1cc[n+](CCC[n+]2ccccc2)cc1 | -1.9% | -1% | 25% | nt
CN(C(=O)COc1cccc(Br)c1)C1CCS(=O)(=O)C1 (stereo not given) | 0.1% | -3% | 2% | 2
CCOC(=O)C1=C(C)NC(=O)CC1c1ccccc1 (stereo not given) | -3.0% | -5% | 4% | -3
O=C(Nc1ccc2c(c1)OCCO2)C1CCN(S(=O)(=O)c2ccc(Br)s2)CC1 | 1.3% | 2% | 11% | -10
C=CCN1CCN(C(CCC)c2nnnn2Cc2ccco2)CC1 (stereo not given) | -0.3% | 1% | -5% | 7
Cc1nonc1C(=O)N1CCCC(N2CCN(c3ccc(F)cc3)CC2)C1 (stereo not given) | 1.0% | 3% | 0% | nt
CCCN(CCC)CCN1C(=O)C2C(C(=O)Nc3ccc(C)cc3)C3C=CC2(O3)C1C(=O)NC1CCCCC1 (stereo not given) | 0.6% | 6% | -5% | nt
Cc1cc(C)c2nc(N(CCN(C)C)C(=O)/C=C/c3cccs3)sc2c1 | 0.8% | -8% | 34% | nt
Cc1ccc(NC2=NCCCCC2)cc1C | -0.8% | -5% | 2% | 9
Cc1ccc(NC(=O)C(C)OC(=O)Cn2cnc3ccccc3c2=O)cc1 (stereo not given) | 1.2% | nt | -1% | nt
CCOC(=O)C1CCN(S(=O)(=O)c2ccc3[nH]c(=O)oc3c2)CC1 | -0.7% | 2% | 3% | -1
COc1ccc(Br)c(C(=O)N2CCN(S(=O)(=O)c3cccs3)CC2)c1 | 0.1% | 4% | 4% | -13
CC(C)c1ccc(NC(=O)C(c2ccc3c(c2)OCO3)N2CCCCC2)cc1 (stereo not given) | -2.2% | -3% | 0% | -17
Cc1c(-c2ccccc2)[n+](=O)c2c(n1[O-])CCC2 | 2.2% | 1% | ? | 4
CCCCC(=O)Nc1nn(CCC)c2nc3ccccc3cc12 | ? | -1% | ? | 1
O=c1ccc(-c2ccc(S(=O)(=O)Nc3ccc(F)cc3)s2)n[nH]1 | -2.5% | -16% | 10% | nt
Cc1ccc(C)c(OCCC(=O)OC(C)C(=O)Nc2c(C)n(C)n(-c3ccccc3)c2=O)c1 (stereo not given) | -2.3% | nt | -2% | nt
CN(C(=O)CSc1nnc(COc2ccccc2F)n1N)C1CCCCC1 | 1.5% | nt | 17% | nt
O=C(O)C1=C[C@@H](c2ccccc2)C[C@@H](OCc2ccc(CO)cc2)O1 | 5.5% | 1% | -4% | 8
CCOC(=O)c1[nH]c2ccc(OC)cc2c1NC(=O)CCN1CCc2ccccc2C1 | 13% | 5% | -4% | 3
Cc1ccc(NC(=O)CC2SCCNC2=O)cc1Cl (stereo not given) | 0.7% | -52% | 5% | 2
CCCCCC(=O)Nc1ccc(-c2nnc3n2CCCCC3)cc1 | -5.4% | -3% | 4% | nt
CCOC(=O)Cc1cc(=O)n2[nH]cc(-c3ccc(Cl)cc3)c2n1 | -0.8% | 14% | -5% | 7
COc1ccc(OC)c(-c2csc(N(Cc3ccco3)C(=O)c3cccs3)n2)c1 | -4.9% | 5% | 7% | 3
Cc1cc(NC(=O)CSCC(=O)Nc2ccccc2OC(F)F)no1 | -0.4% | nt | -3% | nt
COc1ccc(CN(Cc2cccn2C)S(=O)(=O)c2cccc(C(F)(F)F)c2)cc1 | 1.3% | 1% | -1% | -5
CC(C)CNC(=O)CSc1nnc(CN2CCCCCC2=O)n1-c1ccccn1 | 3.0% | -1% | -3% | 7
Cn1c(CNC(=O)CNC(=O)Cc2ccc(Cl)cc2)cc(=O)n(C)c1=O | 3.2% | 2% | 20% | nt
CCOC(=O)C1CCN(C(=O)c2ccc(Cl)c(NC3=NC4CS(=O)(=O)CC4S3)c2)CC1 (stereo not given) | -0.3% | -4% | 1% | 0
O=C(Nc1ccccc1)Nc1ccccc1C(=O)NCc1ccccc1 | 3.4% | -20% | -5% | 4
Cn1c(SCC(=O)NCc2cccs2)nnc1-c1cccs1 | 0.3% | -4% | -2% | 10
N/C(=N\OC(=O)c1ccc(=O)n(Cc2ccccc2)c1)c1ccccn1 | ? | -5% | -21% | 4
CCOC(=O)C1(CC2CC2)CCN(Cc2ccc(O)c(Cl)c2)CC1 | nt | 4% | nt | -5
CCOc1ccc(N2C(=O)C3C(c4ccccc4)=NN(c4ccccc4)C3C2=O)cc1 (stereo not given) | -1.9% | -3% | -5% | ?
CCC(CC)NC(=O)COc1ccc(OC)cc1C=O | -3.7% | -2% | -3% | 0
O=C1C(C=NC2CC2)=C(O)c2ccccc21 | -3.5% | -47% | 10% | -6
CN(C(=O)c1ccccc1C(=O)OCC(=O)NCc1cccs1)C1CCCCC1 | 0.9% | 3% | -10% | 6
CCCCCn1c(CN(C)Cc2ccccc2)nc2c1c(=O)n(C)c(=O)n2C | 4.2% | 24% | 3% | 1
CC(C)Cn1c(SCC(=O)NCc2ccc(Cl)cc2)nnc1-c1cccc(S(=O)(=O)N2CCOCC2)c1 | -1.3% | -5% | -17% | 1
Next part
SMILES | Rango-impB inh | miR-21 reporter | Rango release inh | GLA inh pH 4.5
CCN(CC)c1ccc(C(NC(C)=O)NC(C)=O)cc1 | 1.7% | 3% | 5% | 6
CCc1ccc2c(COn3nnc4ccc(S(=O)(=O)N(C)C)cc43)cc(=O)oc2c1 | 2.4% | -5% | 0% | -5
CCOc1ccc(/C=N/NC(=O)c2nnn(-c3nonc3N)c2CN2CCC(C)CC2)cc1 | 1.5% | -1% | -1% | nt
Cc1oc2ccc(OC(=O)COc3c(F)c(F)c(F)c(F)c3F)cc2c1C(=O)OC(C)C | -0.1% | -2% | -13% | 0
COc1cc2c(cc1NC(=O)COC(=O)c1ccc(C(C)(C)C)cc1)oc1ccccc12 | -1.7% | -4% | -12% | 4
CC(C)c1cc(C(=O)O)c2ccccc2n1 | 3.0% | -2% | -9% | -2
CCOC(=O)C1=C(C)Nc2ncnn2C1c1c[nH]c2ccccc12 (stereo not given) | -0.3% | 0% | 5% | -7
CCOC(=O)C1C(c2ccc(O)cc2)NC(=O)NC1(O)C(F)(F)F (stereo not given) | 0.0% | -2% | 7% | nt
CCOC(=O)N1CCC(NC2CCCCCCC2)CC1 | 3.2% | -6% | -9% | 3
COc1ccc(N(CC(=O)NC2CCCC2)C(=O)CCC(=O)Nc2cc(C)on2)c(OC)c1 | 4.4% | -9% | -6% | -2
COC(=O)c1cc(OC)c(OC)cc1NC(=O)CCC1CCCC1 | 0.6% | -6% | -9% | -7
Cc1ccn2c(=O)c(C(=O)NCCCN3CCCC3=O)c(O)nc2c1 | 0.3% | -1% | -19% | nt
CCn1c(=O)[nH]c2ccccc2c1=O | -0.6% | 0% | 0% | -1
